Screening results deposited in PubChem by National Center for Advancing Translational Sciences (NCATS).
LASV entry inh: Lassa virus entry inhibition; Lassa virus pseudotype entry inhibition, cell reporter; control for the full effect not named in the record; Potency, µM (titrated, usually from 37.9 µM), inactives show at the top dose activity change, negative = inhibition, usual class: inhibitors; hit rate 1.2% among 300,000; AID 540256; active means well fitted inhibition curve with a large enough effect; inconclusive means small, poorly fitted or top-dose-only effect, or effect the other way; inactive means flat fitted curve, though single readings scatter; tested in HEK293 cells; also: % is scaled to controls: 0 for no effect and ±100 for the full control effect; nearly all actives have a fitted effect of over 50% in size; luciferase read-out
RE007 growth inh: less growth of the S. pombe RE007 Vpr strain | S. pombe RE007 Vpr strain, BacTiter-Glo ATP luminescence, 24 h; control for the full effect not named in the record | Potency, µM (titrated, usually from 92.2 µM), without a hit: at the highest dose activity change, negative = less growth | hit rate 0.21% among 360,000 | AID 651644; active = well fitted falling curve with a large enough effect; inconclusive = small, poorly fitted or top-dose-only effect; inactive = no such curve, though single readings can be large or run the other way;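 also: % is scaled to controls: 0 for no effect and ±100 for the full control effect; nearly all actives have a fitted effect of over 50% in size; the assay follows cell death caused by Vpr and the record does not say whether a fall means rescue or toxicity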
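Fission yeast RE007 carrying one integrated HIV-1 vpr copy, seeded at OD 0.01 in PMG+AL medium with 23 nL pinned compound. Grown 24 h at 30 degrees; viability read by BacTiter-Glo luminescence after 5 min.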
Cruzain Triton: cruzain (T. cruzi) inhibition with detergent | P25779 | purified cruzain, Z-FR-AMC fluorescence, 0.01% Triton | Potency, µM, inactives show max response, negative = inhibition, most hits filed as inhibitors | hit rate 0.43% among 200,000;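 also: plate controls were neutral wells for no effect and buffer without enzyme for full effect; nearly all actives have a fitted effect of over 40% in size; top concentration of the series not given in the record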
Target sequence (P25779 123-467 limits assumed): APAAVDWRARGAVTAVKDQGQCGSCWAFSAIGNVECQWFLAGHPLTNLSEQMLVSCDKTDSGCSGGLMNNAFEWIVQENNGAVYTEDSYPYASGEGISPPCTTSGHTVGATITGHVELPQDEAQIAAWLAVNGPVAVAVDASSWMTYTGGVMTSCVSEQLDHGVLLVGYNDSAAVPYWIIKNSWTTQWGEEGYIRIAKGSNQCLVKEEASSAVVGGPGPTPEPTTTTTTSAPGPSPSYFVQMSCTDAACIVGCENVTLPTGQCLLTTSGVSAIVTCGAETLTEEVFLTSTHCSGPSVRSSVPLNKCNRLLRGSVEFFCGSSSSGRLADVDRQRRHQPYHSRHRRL
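Read-out: AMC fluorescence (360 nm excitation, 450 nm emission), four reads over 2 min, first-to-third difference used. Conditions: cruzain 1.5 nM, Z-FR-AMC 2 uM, pH 5.5 acetate, 5 mM DTT, 0.01% Triton X-100.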
Marburg entry inh: Marburg virus entry inhibition; Marburg virus pseudotyped entry inhibition, cell reporter; control for the full effect not named in the record; about a third of the inactives were read at about 46 µM; Potency, µM (series often up to 37.8 µM), without a hit: at the highest dose activity change, negative = inhibition, most hits filed as inhibitors; hit rate 1.8% among 300,000; active = well fitted inhibition curve with a large enough effect; inconclusive = small, poorly fitted or top-dose-only effect, or effect the other way; inactive = flat fitted curve, though single readings scatter; tested in HEK293 cells; about a fifth of its hits are not listed in these tables; also: % is scaled to controls: 0 for no effect and ±100 for the full control effect; luciferase read-out
Cruzain inh noDet: cruzain (T. cruzi) inhibition without detergent; P25779; purified cruzain, Z-FR-AMC fluorescence, no detergent; Potency, µM, without a hit: max response, negative = inhibition, hits mostly inhibitors; hit rate 2.3% among 200,000;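 also: plate controls were enzyme without inhibitor for no effect and buffer without enzyme for full effect; nearly all actives have a fitted effect of over 40% in size; top concentration of the series not given in the record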
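Purified cruzain at 1.5 nM, pre-incubated 15 min with compound at room temperature in 100 mM sodium acetate pH 5.5, 5 mM DTT, 0.00005% Triton X-100. Reaction started with 2 uM Z-FR-AMC; AMC fluorescence increase over 60 s gives rate.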
NS1 function inh: inhibitors of influenza NS1 protein function | S. cerevisiae slowed by influenza A NS1, growth recovery by OD600 | Potency, µM (series often up to 46.1 µM), inactives show at the highest dose activity, positive = more growth | hit rate 0.4% among 270,000 | AID 2326; active means well fitted rising curve with a large enough effect; inconclusive means small, poorly fitted or top-dose-only effect; inactive means no such curve, though single readings can be large or run the other way; also: nearly all actives have a fitted effect of over 50% in size
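Growth recovery, yeast-based: influenza A NS1 expressed in S. cerevisiae causes slow growth, and suppressors are detected by OD600. The parent strain without NS1 is used as positive control.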
SARS PLP yeast: blocks SARS-CoV papain-like protease in a yeast assay; Potency, µM (top dose mostly 32.9 µM), for inactives: at the top dose activity, positive = growth rescue; AID 485353; S. cerevisiae expressing SARS-CoV PLpro, growth rescue; control for the full effect not named in the record; hit rate 0.19% among 330,000; active means well fitted rising curve with a large enough effect; inconclusive means small, poorly fitted or top-dose-only effect; inactive means no such curve, though single readings can be large or run the other way; also: 0% is about no effect; nearly all actives have a fitted effect of over 55% in size; growth read by luminescence after 48 h
StopGo reporter: lowers the luciferase signal of an FMDV 2A StopGo reporter | human cells with a luciferase reporter of 2A StopGo recoding; control for the full effect not named in the record | Potency, µM (doses to about 57.9 µM), without a hit: at the top dose signal change, negative = less light | hit rate 1.2% among 410,000; active = well fitted falling curve with a large enough effect; inconclusive = small, poorly fitted or top-dose-only effect; inactive = no such curve, though single readings can be large or run the other way; tested in HEK293T cells; also: % is scaled to controls: 0 for no effect and ±100 for the full control effect; nearly all actives have a fitted effect of over 45% in size; luciferase light after 4 h
* marks the source's active call; other numbers are inactive results; ? = inconclusive; . = no result given; & = joins results of further samples; [ ] = dose if it differs, or a comment. Unless noted, calls follow the shape of the dose curve; as a rule, active = well fitted curve in the direction sought with a large enough effect; inconclusive = small, poorly fitted or top-dose-only effect, or another doubt; inactive = no such curve, though single readings can be large; an effect the other way counts as inactive or inconclusive. Potency is read from the fitted curve at half-maximal effect.

Order of results: RE007 growth inh	LASV entry inh	Cruzain inh noDet	Marburg entry inh	SARS PLP yeast	Cruzain Triton	StopGo reporter	NS1 function inh
C=C(C)CNC(=S)N/N=C/c1ccc(N2CCOCC2)cc1
  12%	?	-16%	?	?	-16%	-17%	28%
COc1ccc2nc(SC(C)C(=O)NC3CCCC3)[nH]c2c1 (stereo unspecified)
  5%	?	.	9%[46.1 µM]	-23%	.	-10%	.
CCN1CCN(C(=O)c2[nH]c3ccc(OC)cc3c2C)CC1
  -4%	.	.	.	1%	.	-5%	11%
Cc1ccccc1Nc1nc(N)nc(CSc2nncn2C)n1
  -5%	-3%	.	?	-2%	.	30%[activator]	2%
CC1CCN(CCOc2cc(Cl)ccc2Cl)CC1
  5%	-25%	-6%	?	-2%	7.6%	-7%	-7%
COc1ccc(CN2C(=NC(=O)C3CC3)SC3CS(=O)(=O)CC32)cc1OC (stereo unspecified)
  0%	4%[46.1 µM]	.	-18%[46.1 µM]	1%	.	13%	10%
O=C(CSc1nc(-c2ccccc2)cc(C(F)(F)F)n1)NCc1ccco1
  8%	2%	-4%	-19%	-6%	1.6%	.	1%
O=C(COC(=O)c1ccc(S(=O)(=O)N2CCc3ccccc3C2)cc1)NC1CCS(=O)(=O)C1 (stereo unspecified)
  -8%	12%[46.1 µM]	.	11%[46.1 µM]	1%	.	5%	.
O=C(CN1C(=O)NC2(CCCCC2)C1=O)N1CCN(c2ncccn2)CC1
  16%	3%	.	-11%	-1%	.	-4%	.
COc1c2occc2c(OC)c2c(=O)cc(C(F)(F)C(F)(F)F)oc12
  5%	-2%	25%	13%	-1%	-2.7%	.	-5%
Cn1c(=O)[nH]c(=O)c2[nH]c(CN3CCN(C(=O)c4ccco4)CC3)nc21
  16%	21%	-2%	16%	3%	7.9%	14%	-1%
O=C(O)CCC(=O)N1N=C(c2ccccc2)CC1c1ccc2nccnc2c1 (stereo unspecified)
  .	14%	-4%	?	10%	-5.3%	15%	1%
Cc1ccc(C)c(N2CCN(C(=O)CCn3c(=O)[nH]c4ccccc4c3=O)CC2)c1
  .	-12%[46.1 µM]	-3%	.	.	-0.1%	-21%	.
O=C(CNC(=O)c1ccc(Br)o1)Nc1ccc(N2CCCCCC2)cc1
  -16%	-12%	.	-24%	2%	.	9%	.
O=C1c2ccccc2C(=O)c2c1cccc2N1CCCC1
  .	13%	1%	?	-47%	-11%	-25%	-13%
CCN(CC)S(=O)(=O)c1cc(C(=O)OCC(=O)Nc2c(F)cccc2F)ccc1F
  3%	1%	-2%	?	?	-5.5%	-20%	-19%
CN1CCc2c(sc(N)c2C(=O)O)C1
  -26%	-16%	.	5%[46.1 µM]	-1%	.	2%	.
Nc1ccc(Cc2ccc(N)cc2)cc1
  1%	1%	-20%	17%	.	3.6%	-5%	.
COc1ccc(CNc2oc(-c3ccc(COc4ccccc4C)o3)nc2C#N)cc1
  .	-9%[46.1 µM]	-23%	?	.	-1.0%	-8%	.
O=C(Nc1cccnc1)c1ccccc1Cl
  3%	0%	.	?	-7%	.	11%	-13%
CC12CCC(C(=O)Nc3cccc(Cl)c3Cl)([C@H](Br)C1=O)C2(C)C (stereo partly specified)
  1%	-13%[46.1 µM]	.	?	1%	.	-14%	-4%
Nc1nncn1C(=O)c1ccc(Cl)cc1Cl
  13%	-38%	.	3%[46.1 µM]	-3%	.	-19%	1%
O=C(NCCC1=CCCCC1)C1CCN(Cc2cnn(-c3ccccc3)c2-n2cccc2)CC1
  3%	?	-1%	?	-20%	6.3%	0%	-6%
Cc1ccc(N=C2NC(=O)/C(=C/C=C/c3ccco3)S2)cc1
  1%	?	?	-5%	-22%	-8.1%	25%	17%
CN(C)c1ccc(NC(=O)CSc2nc3ccccc3c(=O)n2C2CCCCC2)cc1
  0%	?	13µM*	-25%	-7%	-0.6%	-19%	?
CCc1nnc(NC(=O)CCS(=O)(=O)c2ccc(C)cc2)s1
  37%	-8%	.	?	3%	.	-18%	.
COc1cc(C(=O)NC2CCN(CC(=O)NC3CCCCC3C)CC2)cc(OC)c1OC (stereo unspecified)
  4%	1%[46.1 µM]	.	0%[46.1 µM]	-7%	.	-9%	16%
O=C(N/N=C/c1c(O)ccc2ccccc12)c1ccc(CO)nc1
  -17%	?	.	11µM*	26%	.	-11%	6%
CN(C)S(=O)(=O)c1cccc(NC(=O)C2Cc3ccccc3CN2C(=O)c2ccco2)c1 (stereo unspecified)
  -19%	-8%	.	2%[46.1 µM]	4%	.	14%	6%
CCOCC(O)CS(=O)Cc1ccccc1 (stereo unspecified)
  -8%	-25%[14.3 µM]	8%	-2%	1%	3.9%	15%	4%
Cc1nc(Nc2cccc(F)c2)c2oc3ccccc3c2n1
  3%	-13%[46.1 µM]	.	-29%[46.1 µM]	-5%	.	-7%	-8%
CCN1CCN(c2nc3ccccc3s2)CC1
  0%	?	0%	?	-1%	8.6%	25%	-7%
COc1cc(NC(=S)NC(=O)c2ccc(F)cc2)ccc1NC(=O)c1ccco1
  7%	-2%	?	?	1%	2.2%	-12%	10%
O=C(Oc1ccccc1N1CCOCC1)c1sccc1Br
  10%	26%	.	9%	-1%	.	-28%	-9%
CS(=O)(=O)N(CCc1ccccc1)CC(=O)N1CCN(c2ccccc2F)CC1
  -3%	?	21%	?	0%	1.9%	?	-2%
COc1ccc(C)cc1NC(=O)c1sc2ncn(CC(=O)N3CCCCC3)c(=O)c2c1C
  -14%	.	.	.	-5%	.	-5%	10%
COc1cccc(C(=O)OCC(=O)NC2CCCc3ccccc32)c1O (stereo unspecified)
  -1%	-17%[46.1 µM]	.	?	0%	.	6%	.
COc1ccc(C(=O)CC(=O)C(=O)NCCc2cccc(C)c2)cc1
  -6%	?	-9%	-54%	20µM*	-9.7%	-3%	8%
COc1cc2c(cc1NC(=O)c1cncc(Br)c1)oc1ccccc12
  14%	-15%	1%	-24%	-4%	-5.5%	22%	1%
Cc1ccc(-c2csc(C3=C(O)CN(NC(=O)c4ccco4)C3=N)n2)cc1
  2%	14%	.	3%	0%	.	9%	6%
CCC(Oc1ccc(F)cc1)C(=O)N1CCCCCCC1 (stereo unspecified)
  -23%	.	.	.	0%	.	-10%	19%
CN(C(=O)c1ccno1)c1nnc(-c2cccnc2)s1
  -9%	3%	-1%	4%	-1%	0.4%	3%	-8%
O=S(=O)(NCCCc1ccccc1)c1ccc(Cl)cc1
  6%	-1%	-3%	8%	-28%	-7.8%	22%	-24%
COc1ccc(C2C([N+](=O)[O-])=C(C)N(C)C(=O)N2C)cc1OC (stereo unspecified)
  1%	21%[46.1 µM]	.	7%[46.1 µM]	0%	.	-13%	.
CCOC(=O)C1=C(C)N(c2ccccc2)C(=O)/C1=C\c1cccs1
  0%	14%	-10%	4%	-13%	-9.3%	?	-21%
CCOC(=O)c1ccc(OC(=O)c2cn(-c3ccc(C)cc3)c(=O)c3ccccc23)cc1
  .	0%[46.1 µM]	-19%	.	.	-1.7%	-27%	.
CCN(CC(=O)Nc1c(F)cccc1F)C(=O)Cc1csc(-c2ccc(OC)c(OC)c2)n1
  -19%	?	.	16%	-9%	.	8%	.
COc1ccc(C(=O)c2oc3ccccc3c2NC(=O)c2ccc(F)cc2)cc1
  .	6%[46.1 µM]	12%	5%[46.1 µM]	.	-0.7%	0%	.
CCOC(=O)c1c(NC(=O)c2ccc(S(=O)(=O)N(CCOC)CCOC)cc2)sc2c1CC(C)(C)NC2(C)C
  .	-1%[46.1 µM]	-9%	.	.	-1.4%	10%	.
CCOC(=O)C1(Cc2ccccc2)CCN(Cc2csc(C(C)=O)c2)CC1
  -5%	-17%	.	-6%[46.1 µM]	-1%	.	?	2%

Next section:
Order of results: RE007 growth inh	LASV entry inh	Cruzain inh noDet	Marburg entry inh	SARS PLP yeast	Cruzain Triton	StopGo reporter	NS1 function inh
CCCOc1ccc(C(=O)NNC(=S)NC(=O)c2cc(-c3ccc(Cl)cc3)nc3ccccc23)cc1
  2%	-10%	?	?	3%	2.7%	6%	12%
CCCn1c(SCC(=O)Nc2ccccc2N2CCCCC2)nc2c1c(=O)n(C)c(=O)n2C
  22%	?	10%	?	2%	-4.5%	.	-70%
O=C(CSc1nc(C(F)(F)F)cc(=O)[nH]1)Nc1ccc2c(c1)OCCO2
  5%	4%	.	-1%	0%	.	27%	.
CCCC(=O)NNc1cc(=O)c2c(=O)n(C)c(=O)n(C)c2[nH]1
  6%	8%	-3%	4%	-4%	1.6%	3%	8%
CCc1noc(C)c1C(=O)Nc1cc(Cl)ccc1N1CCOCC1
  5%	12%	.	-20%[46.1 µM]	-11%	.	?	.
CCOc1ccc(N(CC(=O)NCc2ccccc2)C(=O)Cn2nnc(-c3ccc(C)o3)n2)cc1
  -9%	-2%	.	-24%[46.1 µM]	4%	.	-3%	18%
Nc1c(S(=O)(=O)c2cccs2)c2nc3ccccc3nc2n1Cc1ccccc1
  31%	-9%	?	-21%	-7%	2.9%	30%[activator]	6%
Cc1ccc(N(CN2C(=O)C3C4CCC(C4)C3C2=O)C(=O)c2ccco2)cc1 (stereo unspecified)
  11%	.	.	.	1%	.	0%	-2%
Cc1ccccc1NC(=O)Cn1nc(-c2ccccc2)nc1-c1ccccc1
  13%	-17%	0%	1%	1%	1.5%	8%	-5%
CCN(CC(=O)NCc1ccc(Cl)cc1)C(=O)/C=C/c1cc(OC)c(OC)c(OC)c1
  2%	?	.	-11%[46.1 µM]	2%	.	0%	13%
Cc1ccc2nc(NC(=O)C3CCCN(S(=O)(=O)c4cnc[nH]4)C3)sc2c1 (stereo unspecified)
  -9%	-23%	-20%	13%&13%	5%	-6.6%	23%	?
O=C(O)CNC(=S)N(Cc1ccccc1Cl)C1CCCC1
  -2%	21%[46.1 µM]	.	?	-3%	.	15%	.
c1ccc(-c2csc(N3CCCCCC3)n2)cc1
  -24%	1%	-2%	?	0%	-1.9%	41%[activator]	-6%
